Source: PubChem
NPYLR7 ag – mosquito NPYLR7 agonism | HEK293T NPYLR7/Galpha15, GCaMP6s calcium fluorescence | activation, % at 10 µM | hit rate 0.15% among 270,000; in the data active = activation above about 40%;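 also: 0% = vehicle and 100% = reference agonist at the receptor; some compounds past the cut are filed as inactive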
NPYLR7 ag max-min – second read-out of NPYLR7 ag, no call of its own (marks repeat the call); activation, %; measured here: Max-Min RFU normalised activation; some inactives read as strong as hits;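 span of the calcium signal over five minutes; 0% = vehicle and 100% = native peptide agonist; compound fluorescence can raise it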
* marks the source's active call; other numbers are inactive results; & = joins results of further samples.

SMILES	NPYLR7 ag	NPYLR7 ag max-min
CC(=O)NC1CCCN(C(=O)CN2CCCCC2Cn2cncn2)C1 (stereo not drawn)	-8	-6
CN1CCN(C(=O)C2CCCN(c3ncnc4c3nc3n4CCCCC3)C2)CC1 (stereo not drawn)	3	1
C=CC(C)(O)CN(CCC)Cc1c(C)nn(-c2cccc(Cl)c2)c1Oc1ccc(OC)cc1 (stereo not drawn)	7	9
Cc1c(C(=O)NCc2cc(F)cc(F)c2)cnc2c(-c3ccc(C(C)C)cc3)cnn12	8	-2
COc1ccccc1CN1CCC(CN(CC(C)C)C(=O)c2csc(C(C)=O)c2)CC1	8	2
CCN(CC)S(=O)(=O)c1cccc(C(=O)Nc2nccs2)c1	-12	-22
COc1cccc(CN2CCC(CO)(CC3CCCCO3)CC2)c1 (stereo not drawn)	5	-1
CCCCCNC(=O)C1CCN(Cc2c(-c3cccs3)nc3ccccn23)CC1	0	29
CCc1nc2n(n1)C(=O)C(C(c1cccc(OC)c1)N1CC(C)CC(C)C1)S2 (stereo not drawn)	-5	-10
Cc1ccc(C)c(NC(=O)CC(=O)NCC(O)Cc2ccccc2)c1 (stereo not drawn)	13	-4
CCC(C(=O)NCCS(=O)(=O)c1ccccc1F)c1ccccc1 (stereo not drawn)	7	3
CN1CCCC2(CCN(C(=O)Cc3nnc(N)s3)C2)C1=O (stereo not drawn)	-2	-3

Brought forward from above: six compounds, followed by the next part.
SMILES	NPYLR7 ag	NPYLR7 ag max-min
COc1cccc(CN2CCC(CO)(CC3CCCCO3)CC2)c1 (stereo not drawn)	5	-1
CCCCCNC(=O)C1CCN(Cc2c(-c3cccs3)nc3ccccn23)CC1	0	29
CCc1nc2n(n1)C(=O)C(C(c1cccc(OC)c1)N1CC(C)CC(C)C1)S2 (stereo not drawn)	-5	-10
Cc1ccc(C)c(NC(=O)CC(=O)NCC(O)Cc2ccccc2)c1 (stereo not drawn)	13	-4
CCC(C(=O)NCCS(=O)(=O)c1ccccc1F)c1ccccc1 (stereo not drawn)	7	3
CN1CCCC2(CCN(C(=O)Cc3nnc(N)s3)C2)C1=O (stereo not drawn)	-2	-3
O=C(CSc1nc2sc3c(c2c(=O)[nH]1)CCC3)NCCCO	3	1
Cc1ccc(-n2c(=O)c3oc4ccccc4c3n(CC(=O)N(C(C)C)C(C)C)c2=O)cc1	1	-2
COc1ccc(C(=O)/C=C/c2ccc(N3CCC(c4ccccc4)=N3)cc2)cc1	-4	-8
CCc1nc(N(CCCN2CCOCC2)CCC(=O)Nc2cccc(C(F)(F)F)c2)c2ccc(Cl)cc2n1	-16	-5
COC(=O)c1ccc(NC(=O)c2c3c(nn2C2CCS(=O)(=O)C2)CCC3)cc1 (stereo not drawn)	26	19
CCc1cc(C(=O)NCC2Cc3cc(-c4cc(OC)ccc4OC)cc(Cl)c3O2)n(C)n1 (stereo not drawn)	3	2
CN(C)c1ncc(CN2CCN3C(=O)CNC(=O)C3C2)s1 (stereo not drawn)	8	4
O=C(NC1CCCC[C@H]1N(Cc1ccc(Cl)cc1)C(=O)c1ccccc1)C1CCCN(C(=O)CCCl)C1 (stereo partly drawn)	13	15
COc1ccc(C(=O)Nc2c(N)nc(SCC(=O)Nc3cccc(C)c3)[nH]c2=O)cc1OC	3	3
COc1ccc(S(=O)(=O)Oc2cc(CN(C(=O)NC(C)(C)C)C(C)C)ccc2OC)cc1	1	9
O=C(O)c1ccc2c(c1)c1c3n2CCNC3CCC1 (stereo not drawn)	6	2
C=CCn1c(SCC(=O)Nc2ccc3c(c2)OCO3)nc2sc(C)c(C)c2c1=O	-4	-9
CCC(C(=O)N(CCC(C)C)CC(=O)N(CCOC)Cc1cccn1Cc1ccccc1)c1ccccc1 (stereo not drawn)	-2	-4
CC(=O)c1c(C)[nH]c(C(=O)COC(=O)c2ccc(C)s2)c1C	3	6
NC(=O)c1oc2ccccc2c1NS(=O)(=O)c1ccccc1Cl	15	11
CCCCS(=O)(=O)N1CCN(c2nc(CCC(C)C)nc3c2cnn3-c2cccc(Cl)c2)CC1	2	10
CCOC(=O)c1cc(-c2ccc([N+](=O)[O-])cc2)n(NC(=O)COc2ccccc2C)c1C	3	4
CCOc1ccccc1OCCN(C)C(=O)c1cn2ccc(C)cc2n1	-3	-7
Cc1n[nH]c(C)c1Cc1nncn1-c1cccc2ccccc12	5	-4
COc1cccc(CNC(=O)Cc2cnn(-c3ccccc3)c2C)c1OC	8	1
CC(C)(C)NC(=O)N(Cc1cccc(C(F)(F)F)c1)CC1CC(c2ccc(F)cc2F)=NO1 (stereo not drawn)	19	30
COc1ccc(OC)c(CCNc2nc3cnc(-c4cccc(Oc5ccccc5)c4)cc3n2C)c1	4	-2
Cc1cc(C)nc(SCc2csc(Cc3ccc(F)cc3Cl)n2)n1	4	15
N#CC(C(=O)/C=C/c1nccs1)C(=O)Nc1cccc(Cl)c1Cl (stereo not drawn)	-1	21
COc1ccc(C2=NN(C(=O)CN3CCOCC3)C(c3nc4ccccc4[nH]3)C2)cc1 (stereo not drawn)	52*	53*
COc1ccccc1C1(C(=O)N2CCN(c3ccc(F)cc3)CC2)CCOCC1	6	1
COCCNC(=S)NNC(=O)C(=O)NNC(=S)NCCOC	-1	-1
CCOCCn1ccc2c(OCC(=O)N3CCc4ccccc43)cccc2c1=O	-1	24
Cc1cccc2sc(N(CCCN(C)C)C(=O)c3ccco3)nc12	7	7
CCOC(=O)CNC(=O)N(CC(=O)N1c2ccccc2-n2cccc2C1c1ccc(C)cc1)C1CC1 (stereo not drawn)	9	19
Cc1oc2ccccc2c1C#N	1	2
CCN(Cc1ccc(S(C)(=O)=O)cc1)CC1CCCO1 (stereo not drawn)	3	14
COc1ccc(-c2cc(=O)c3c(O)cc(O)cc3o2)cc1	6&-1	-5&-5
Cc1cccc(OS(=O)(=O)c2cccc(S(N)(=O)=O)c2)c1C	7	4
COc1ccc(-n2ncc3c2CC(C)(C)CC3NC2CCN(Cc3ccccn3)CC2)cc1 (stereo not drawn)	18	6
c1ccc(CN2CCc3nnsc3C2)cc1	8	12
Cc1ccc(-c2nccn2Cc2ccccc2-n2cncn2)o1	6	5
Cn1cc(S(=O)(=O)N2CCN(C(c3ccccc3)c3ccccc3)CC2)c(=O)n(C)c1=O	-2	-4
C=CCN(Cc1csc(COc2cccc(C)c2)n1)C(=O)c1ccc(F)cc1	21	20
COCCN1Cc2ccccc2N(CC(O)C(F)(F)F)CCC1=O (stereo not drawn)	1	3
Cn1c(=O)[nH]c(=O)c2c1nc(N1CCCCC1)n2CCCSc1ncccn1	-1	-7
CCN(C/C=C/c1ccccc1)C(=O)[C@H](N)Cc1ccccc1	5	2
COc1ccc(C)cc1NC(=O)Cn1nc2c(cc1=O)CCCC2	4	-7
Cc1ccc(C#N)c(S(=O)(=O)N2CCN(C(c3ccccc3)c3ccc(F)cc3)CC2)c1 (stereo not drawn)	12	12
O=C(NCc1ccco1)C(C1CCCC1)N1CCN(C(=O)c2cccs2)CC1 (stereo not drawn)	-3	2
Cc1cc(C)nc(-n2ncc3c2CC(c2cccc(Cl)c2)CC3=O)n1 (stereo not drawn)	-2	1
CCc1nc2ccc(C(=O)N(C)C(C)C)cn2c1N(CC)C(=O)NCCc1ccccc1	-5	-16
CC(=O)NCCNc1nc(NCc2ccccc2)nc2ccsc12	4	2
COc1cccc2cc(-c3csc(Nc4ccccc4)n3)c(=O)oc12	-5	-12
Brc1ccccc1CN1CCC(Cc2ccc(-n3cccc3)cc2)CC1	0	8
CC(C)CS(=O)(=O)CCNc1nc(-c2ccncc2)nc2c1CNC2	7	6
Cc1ccc(NC(=O)N2CCc3nc(Cc4ccccc4F)[nH]c(=O)c3C2)cc1Cl	17	23
CC1Sc2nnc(C3CCCO3)n2N=C1c1ccc2c(c1)CCC2 (stereo not drawn)	-4	-1
Cc1ccc(C)c(-n2c(C)cn3c4c(=O)n(CC(C)C)c(=O)n(C)c4nc23)c1	4	6
O=C(Cn1c(SC(F)F)nc2ccccc21)NCc1ccoc1	-6	-8
CC(NC(=O)c1ccco1)C(=O)NCc1ccccc1CN(C)C (stereo not drawn)	-2	-5
CCN(CC)CCn1ccnc1-c1nc[nH]c1C	-3	-6
CCc1ccc(S(=O)(=O)O)c(C(C)(C)C)n1	20	11
Cc1ccc(OC(=O)c2ccc(Sc3nncn3C)c([N+](=O)[O-])c2)cc1C	7	15
Cc1ccc(-n2c(=O)[nH]c3c(C(N)=O)nc(-c4ccc(OCc5ccccc5)cc4)nc32)cc1C	-7	-10

Further structures
SMILES	NPYLR7 ag	NPYLR7 ag max-min
CN(Cc1ccccc1)C(=O)CNc1cccc(C#N)c1	5	1
O=C(CN1CCN(c2ccccc2F)CC1)N1N=C(c2ccccc2Cl)CC1c1ccc2c(c1)OCO2 (stereo not drawn)	-2	7
Cc1nnc(SCc2ccccn2)c2c1cnn2-c1ccccc1	-15	-22
Fc1ccc(C2CCCN2Cc2ccc3nonc3c2)cc1 (stereo not drawn)	-4	-5
CCN(CC)c1ccc(CN(Cc2ccc(F)cc2)C(=O)NC(C)(C)C)c(OS(=O)(=O)c2ccc(OC)cc2)c1	-3	-1
COc1ccccc1CNC(=O)CN1C[C@H]2C[C@H](O)[C@@H](O)C[C@H]2C1	7	4
CCOC(=O)c1c(NC(=O)c2oc3ccccc3c2C)sc2c1CCCS2	-1	22
COc1cc(OC)c(-c2noc(C(=O)OC(C)(C)C)c2C(=O)OC(C)(C)C)c(OC)c1	7	5
Cc1cc(C)c(NS(=O)(=O)c2ccc3[nH]c(=O)oc3c2)c(C)c1	16	8
COc1ccc(OCCSc2nc3cc(S(=O)(=O)Nc4ccccc4OC)ccc3o2)cc1	12	2
O=C(Nc1sc2c(c1C(=O)Nc1ccc(Cl)cc1)CCCC2)c1ccc([N+](=O)[O-])cc1	6	4
CNc1cc(-c2ccccc2C(C)=O)nc2ccnn12	5	2

Brought forward from above: seven entries; new compounds follow.
SMILES	NPYLR7 ag	NPYLR7 ag max-min
COc1ccccc1CNC(=O)CN1C[C@H]2C[C@H](O)[C@@H](O)C[C@H]2C1	7	4
CCOC(=O)c1c(NC(=O)c2oc3ccccc3c2C)sc2c1CCCS2	-1	22
COc1cc(OC)c(-c2noc(C(=O)OC(C)(C)C)c2C(=O)OC(C)(C)C)c(OC)c1	7	5
Cc1cc(C)c(NS(=O)(=O)c2ccc3[nH]c(=O)oc3c2)c(C)c1	16	8
COc1ccc(OCCSc2nc3cc(S(=O)(=O)Nc4ccccc4OC)ccc3o2)cc1	12	2
O=C(Nc1sc2c(c1C(=O)Nc1ccc(Cl)cc1)CCCC2)c1ccc([N+](=O)[O-])cc1	6	4
CNc1cc(-c2ccccc2C(C)=O)nc2ccnn12	5	2
CCc1cc(=O)n(CC(=O)Nc2ccc(NC(C)=O)cc2)c(-n2nc(C)cc2C)n1	-2	-3
Cc1cc(NC(=O)CN2CCN(C)CC2C)n(C(C)(C)C)n1 (stereo not drawn)	-24	-26
CCc1nc2ccc(C(=O)NCCCn3ccnc3)cn2c1N(C)Cc1ccc(N(C)C)cc1	11	-2
COc1ccc(N2CCN(C(CNC(=O)Nc3c(F)cccc3F)c3ccco3)CC2)cc1 (stereo not drawn)	0	-5
Cc1[nH]c2ccc(CNC(=O)c3ccc(CN4CCCC4)o3)cc2c1C	-4	-7
Cc1ccc(C)c(-n2nc(-c3ccc(C)c(C)c3)cc2C(=O)N2CCN(Cc3ccccc3)CC2)c1	16	27
O=c1oc2ccc(Cl)cc2cc1-c1nnc(Nc2ccc(Oc3ccccc3)cc2)s1	-7	-14
Cc1ncsc1CCC(=O)N1CC(=O)N(C2CCCCC2)CC(OCc2ccccc2)C1 (stereo not drawn)	10	-8
CC(C)OCCNc1nc(CCN)nc2ccccc12	-5	-10
Cc1cc2c(=O)n(Cc3ccco3)c(SCC(=O)c3cccs3)nc2s1	-1	-1
COc1ncc(C(=O)N2Cc3cnc(C(C)(C)C)nc3C2)cn1	2	1
Cc1ccc(C)n1NC(N)=O	25	27

3 entries out of the list, sorted by length of the SMILES, low to high:
SMILES	NPYLR7 ag	NPYLR7 ag max-min
Cc1ccc(C)n1NC(N)=O	25	27
COc1ccc(N2CCN(C(CNC(=O)Nc3c(F)cccc3F)c3ccco3)CC2)cc1 (stereo not drawn)	0	-5
Cc1ccc(C)c(-n2nc(-c3ccc(C)c(C)c3)cc2C(=O)N2CCN(Cc3ccccc3)CC2)c1	16	27

The listing continues.
SMILES	NPYLR7 ag	NPYLR7 ag max-min
Cn1c(C2C(=N)N(CCc3ccccc3)CC2=O)[n+](C)c2ccccc21 (stereo not drawn)	20	22
CCn1cc(C(CC(=O)NCc2ccccc2)c2ccc(Cl)cc2)c2ccccc21 (stereo not drawn)	1	3
CCC(C)Sc1nnc(CNC(=O)c2ccc(OC)cc2)n1CC (stereo not drawn)	-1	-4
COC(=O)c1cccc(NS(=O)(=O)c2cc([N+](=O)[O-])ccc2OC)c1	8	2
Cc1ccccc1C1(C(=O)N(C)Cc2c(C)noc2C)CCOCC1	4	2
CC1CCN(C(=O)Cn2c3ccccc3c(=O)c3ccccc32)CC1	1	-3
Cc1cc2cc(CNC(=O)CC(C)(C)C)ccc2[nH]1	-4	-5
COCCCN(CC(=O)N(Cc1ccccc1)Cc1cccn1Cc1ccc(F)cc1)C(=O)c1ccc(OC)cc1	12	15
CCC(C)(C)NC(=O)C1c2ccccc2-c2ccccc21	1	8
Cc1cc(-c2nn(-c3ccccc3F)cc2CN(C)Cc2cn(C)nc2C)c(C)s1	2&2	1&-5

Only part of the results is shown; count on the stated rates, not on these rows.
